# T cruzi inh – blocks replication of Trypanosoma cruzi. T. cruzi beta-gal in NIH3T3, luminescence, 90 h. inhibition, % (no concentration beside the values). hit rate 1.4% among 300,000. AID 1885;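 active means mean inhibition across valid replicates above about 55%, limit read from the data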;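 further: signal also drops with host cell toxicity which is not excluded here; 0% = plate median of DMSO wells and 100% = zero luminescence signal; higher percent means less beta-gal luminescence so fewer parasites; stock transfer was 50 nL into about 50 µL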
# FGF22 binding – FGF22 (human) thermal shift binding; recombinant FGF22 thermal shift, SYPRO orange fluorescence; percent of sucrose octasulfate shift, DMSO zero; calls only at 9.99 µM; Q9HCT0; hit rate 1.5% among 340,000; AID 651658;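 active means melting point raised past a set limit in the mean and every replicate; three in four hits are not shown here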
# Target sequence (Q9HCT0 whole entry, looked up): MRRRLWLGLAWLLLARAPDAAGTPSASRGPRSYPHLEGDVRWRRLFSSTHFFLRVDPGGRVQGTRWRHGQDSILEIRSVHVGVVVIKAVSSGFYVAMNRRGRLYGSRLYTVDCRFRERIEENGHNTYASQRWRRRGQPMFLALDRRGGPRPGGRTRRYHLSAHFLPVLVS
# Beta cell apopt – beta cell apoptosis inhibition; protection from apoptosis, % (no concentration beside the values); hit rate 0.8% among 300,000; INS-1E cytokine-induced death, ATP luminescence, 48 h; percent of positive-control rescue, neutral wells zero; AID 435005;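 active means all replicates at 75% or more, or half of them and the mean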;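 further: 0% = cytokine-treated negative control wells and 100% = positive control rescue; higher means more ATP so stronger rescue from cytokine killing; wells of about 40 µL received 100 nL stock; the first replicate is given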
# UCH37 inh – inhibitors of human deubiquitinating enzyme UCH37; hit rate 0.33% among 330,000; purified proteasome/UCH37, Ub-AMC cleavage fluorescence; AID 588478; inhibition, % (test concentration not listed); Q9Y5K5;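 active means mean of two replicates above 20%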;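 further: 0% = compound-free wells with enzyme and 100% = wells lacking proteasome; stock transfer was 100 nL into about 20 µL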
# Target sequence (Q9Y5K5 whole entry, looked up): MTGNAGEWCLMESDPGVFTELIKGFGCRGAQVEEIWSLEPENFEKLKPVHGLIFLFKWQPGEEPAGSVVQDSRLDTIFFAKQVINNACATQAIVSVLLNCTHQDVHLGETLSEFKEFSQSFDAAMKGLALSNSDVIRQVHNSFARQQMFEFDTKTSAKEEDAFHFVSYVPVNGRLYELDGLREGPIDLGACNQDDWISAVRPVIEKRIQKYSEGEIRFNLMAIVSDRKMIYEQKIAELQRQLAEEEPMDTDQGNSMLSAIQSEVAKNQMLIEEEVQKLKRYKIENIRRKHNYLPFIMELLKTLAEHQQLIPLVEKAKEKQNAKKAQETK
#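 System: Proteasome-associated human UCH37 deubiquitinase; Input: 0.15 nM proteasome in added enzyme buffer; Also added: Ub-AMC substrate from 1 µM stock; Incubation: 30 min compound-proteasome preincubation then 25 min substrate reaction, room temperature; Detection: fluorescence, ex 355 nm, em 460 nm; Read-out: % inhibition of Ub-AMC cleavage fluorescence; Benchmarks: no-proteasome and no-compound wells.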
# Ecoli growth – blocks Escherichia coli growth. OD600, 23 h; stronger effect = lower value. hit rate 0.21% among 330,000. OD600 absorbance (no concentration beside the values);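 active means OD600 absorbance below the run mean of sample wells minus 3.6 SD, in any replicate, cut at about 0.56 in these data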;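 further: stock transfer was 300 nL into about 60 µL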
# A1 inh – inhibitors of the anti-apoptotic protein A1, read as caspase activation; MEF A1-2A-BIM cells, Caspase-Glo 3/7 luminescence, 3 h; percent of clofoctol response, vehicle zero; caspase activation, % (concentration not given with the values); hit rate 0.066% among 330,000; AID 2462;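 active means over half of replicate activation scores above 10%, or exactly half above 10 with the replicate mean above 10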;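 further: wells of about 30 µL received 50 nL stock; many hits fall short of the cut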
# rRNA inh HTS – selective bacterial rRNA inhibition in E. coli. E. coli WT GFP vs humanized-ribosome RFP mutants, fluorescence, 24 h; stronger effect = lower value; DMSO median 0, no signal -100. GFP signal change (wild-type ribosome), % (no concentration beside the values). hit rate 1.6% among 350,000;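 active means significant combined selectivity score with lowered wild-type GFP, culture density cut under 30%, mutant RFP and density less affected; inactive means any of these conditions unmet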; further: one replicate is shown; some compounds called inactive have numbers as strong as hits
# AF4-AF9 inh – MLL-AF4/AF9 protein interaction inhibition; hit rate 0.47% among 350,000; AlphaScreen, biotin-AF4 peptide binding to FLAG-AF9; P42568; inhibition, % at 10 µM;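 active means every replicate reaching a set inhibition limit, whatever the replicate mean, cut at about 25% in these data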;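 further: 0% = plate neutral control median and 100% = total signal loss; the record names both 10 and 1 µM as test concentration; the first replicate is given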
# rRNA inh HTS OD600 – further read-out of rRNA inh HTS, marked with its call; OD600 change, %; measured here: OD600 growth;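 optical density of the mix in the first replicate; 0 = DMSO median and -100 = no signal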
# rRNA inh HTS RFP – also measured in rRNA inh HTS; calls as there; RFP signal change, %; measured here: RFP humanized mutant strains;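 first replicate; 0 = DMSO median and -100 = no signal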
# Active calls of the source: *; i = inactive; x = not tested or not shown. A portion of the library, so the mix of outcomes need not match the whole.
# Values run as follows: T cruzi inh | FGF22 binding | Beta cell apopt | UCH37 inh | Ecoli growth | A1 inh | rRNA inh HTS | rRNA inh HTS OD600 | rRNA inh HTS RFP | AF4-AF9 inh
(1) CN1CCC(Oc2ccccc2Sc2ccc(C(F)(F)F)cc2)CC1
    37 | i | 18 | -15 | 0.68 | -0.2 | 4 | -4 | -4.3 | 0.7
(2) O=C(Nc1c2n(c(=S)n(-c3ccccc3)c1=O)CCCCC2)c1ccccc1
    4 | i | -1 | 4.4 | 0.69 | 1.8 | 3 | 0 | -1.2 | 0.5
(3) CCOc1ccc(N2C(=O)CN(CC(=O)OC)C2=S)cc1
    -19 | i | 3 | -0.8 | 0.69 | 0.4 | 6 | 9 | 0.0 | 0.0
(4) COc1ccc(-c2cc(-c3ccc(Br)cc3)nc3ncnn23)cc1OC
    9 | x | 8 | -117 | 0.69 | 1.1 | x | x | x | x
(5) COc1ccc2nc(N3CCCCC3)c(/C=C3\SC(=S)NC3=O)cc2c1
    -5 | i | 18 | 6.8 | 0.71 | -0.1 | -32 | -9 | 57 | x
(6) CCOc1ccc(CN2CCN(Cc3c[nH]c4ccccc34)CC2)cc1
    20 | i | 76* | 3.1 | 0.68 | 1.3 | 5 | 12 | 2.9 | 10
(7) CCOc1ccc(Nc2nc(Cc3nnc(SCC(=O)NCc4ccco4)n3CC)cs2)cc1
    -16 | x | -4 | -0.8 | 0.69 | 0.2 | x | x | x | x
(8) Cn1nc(C(=O)NCc2ccccc2)c2ccccc2c1=O
    -9 | x | -13 | -0.5 | 0.69 | 0.3 | x | x | x | x
(9) CCOC(=O)c1sc(Nc2ccc(C)cc2C)nc1C
    9 | x | 2 | -0.9 | 0.69 | -0.4 | x | x | x | x
(10) Cc1ccc(CNC(=O)c2ccc(Cl)cc2[N+](=O)[O-])cc1
    -26 | x | -4 | -0.8 | 0.72 | -0.5 | x | x | x | x
(11) CC(=O)/C(C#N)=C1\NC(=O)C(Cc2ccc(C)c(Cl)c2)S1 (centres undefined)
    0 | i | -6 | 6.3 | 0.66 | 1.1 | -34 | -42 | -11 | -0.5
(12) CC1(C)C(=O)C2(CCCCC2)C(=O)OC1c1ccc(O)cc1 (centres undefined)
    16 | i | 0 | 3.8 | 0.71 | 0.1 | -44 | -38 | -14 | -5.4
(13) O=C(Nc1nnc(COc2ccc(F)cc2)s1)c1ccco1
    -6 | i | 0 | 6.9 | 0.68 | 0.2 | x | x | x | -3.3
(14) Cc1cccn2cc(CSc3nnc(Nc4ccc(C(C)C)cc4)s3)nc12
    48 | i | 5 | -0.8 | 0.58 | 0.6 | -13 | -17 | 5.8 | -1.4
(15) Cc1cccc(NC(=O)C2(c3ccccc3)CC2(Cl)Cl)c1 (centres undefined)
    -1 | x | 1 | 4.7 | 0.64 | -1.5 | x | x | x | x
(16) COc1ccc(-c2noc(Cc3ccc(Cl)cc3)n2)cc1OC
    10 | i | -5 | 3.3 | 0.74 | -0.1 | -6 | -21 | 1.7 | -2.1
(17) CC(=O)Nc1c(Cl)c2c(c(Cl)c1Br)-c1ccc(Cl)cc1C2
    x | x | x | 0.0 | 0.7 | x | 3 | 0 | 1.7 | 4.4
(18) COC(=O)c1sc(=S)n(-c2cc(F)ccc2F)c1N
    -23 | i | -2 | 12 | 0.71 | -0.2 | -20 | -40 | -5.9 | -44
(19) FC(F)(F)c1ccc(Sc2n[nH]c(C(F)(F)F)n2)nc1
    x | i | x | 2.7 | 0.66 | 3.1 | -1 | 1 | -2.6 | -7.0
(20) CC(C)CC1(C)NC(=O)N(CC(=O)Nc2ccc3c(c2)CCC3)C1=O (centres undefined)
    20 | i | 0 | 4.5 | 0.7 | -0.8 | 0 | -1 | -5.2 | -0.1

# 16 entries from above in a different format:
1) CN1CCC(Oc2ccccc2Sc2ccc(C(F)(F)F)cc2)CC1
2) O=C(Nc1c2n(c(=S)n(-c3ccccc3)c1=O)CCCCC2)c1ccccc1
3) CCOc1ccc(N2C(=O)CN(CC(=O)OC)C2=S)cc1
4) COc1ccc(-c2cc(-c3ccc(Br)cc3)nc3ncnn23)cc1OC
5) COc1ccc2nc(N3CCCCC3)c(/C=C3\SC(=S)NC3=O)cc2c1
6) CCOc1ccc(CN2CCN(Cc3c[nH]c4ccccc34)CC2)cc1
7) CCOc1ccc(Nc2nc(Cc3nnc(SCC(=O)NCc4ccco4)n3CC)cs2)cc1
8) Cn1nc(C(=O)NCc2ccccc2)c2ccccc2c1=O
9) CCOC(=O)c1sc(Nc2ccc(C)cc2C)nc1C
10) Cc1ccc(CNC(=O)c2ccc(Cl)cc2[N+](=O)[O-])cc1

assay / entry | 1 | 2 | 3 | 4 | 5 | 6 | 7 | 8 | 9 | 10
T cruzi inh | 37 | 4 | -19 | 9 | -5 | 20 | -16 | -9 | 9 | -26
FGF22 binding | i | i | i | x | i | i | x | x | x | x
Beta cell apopt | 18 | -1 | 3 | 8 | 18 | 76* | -4 | -13 | 2 | -4
UCH37 inh | -15 | 4.4 | -0.8 | -117 | 6.8 | 3.1 | -0.8 | -0.5 | -0.9 | -0.8
Ecoli growth | 0.68 | 0.69 | 0.69 | 0.69 | 0.71 | 0.68 | 0.69 | 0.69 | 0.69 | 0.72
A1 inh | -0.2 | 1.8 | 0.4 | 1.1 | -0.1 | 1.3 | 0.2 | 0.3 | -0.4 | -0.5
rRNA inh HTS | 4 | 3 | 6 | x | -32 | 5 | x | x | x | x
rRNA inh HTS OD600 | -4 | 0 | 9 | x | -9 | 12 | x | x | x | x
rRNA inh HTS RFP | -4.3 | -1.2 | 0.0 | x | 57 | 2.9 | x | x | x | x
AF4-AF9 inh | 0.7 | 0.5 | 0.0 | x | x | 10 | x | x | x | x

11) CC(=O)/C(C#N)=C1\NC(=O)C(Cc2ccc(C)c(Cl)c2)S1 (centres undefined)
12) CC1(C)C(=O)C2(CCCCC2)C(=O)OC1c1ccc(O)cc1 (centres undefined)
13) O=C(Nc1nnc(COc2ccc(F)cc2)s1)c1ccco1
14) Cc1cccn2cc(CSc3nnc(Nc4ccc(C(C)C)cc4)s3)nc12
15) Cc1cccc(NC(=O)C2(c3ccccc3)CC2(Cl)Cl)c1 (centres undefined)
16) COc1ccc(-c2noc(Cc3ccc(Cl)cc3)n2)cc1OC

assay / entry | 11 | 12 | 13 | 14 | 15 | 16
T cruzi inh | 0 | 16 | -6 | 48 | -1 | 10
FGF22 binding | i | i | i | i | x | i
Beta cell apopt | -6 | 0 | 0 | 5 | 1 | -5
UCH37 inh | 6.3 | 3.8 | 6.9 | -0.8 | 4.7 | 3.3
Ecoli growth | 0.66 | 0.71 | 0.68 | 0.58 | 0.64 | 0.74
A1 inh | 1.1 | 0.1 | 0.2 | 0.6 | -1.5 | -0.1
rRNA inh HTS | -34 | -44 | x | -13 | x | -6
rRNA inh HTS OD600 | -42 | -38 | x | -17 | x | -21
rRNA inh HTS RFP | -11 | -14 | x | 5.8 | x | 1.7
AF4-AF9 inh | -0.5 | -5.4 | -3.3 | -1.4 | x | -2.1

# Later entries
# Values run as follows: T cruzi inh | FGF22 binding | Beta cell apopt | UCH37 inh | Ecoli growth | A1 inh | rRNA inh HTS | rRNA inh HTS OD600 | rRNA inh HTS RFP | AF4-AF9 inh
(21) Nc1ccc2c(c1)OC1(CCCCC1)O2
    28 | i | x | -2.3 | 0.72 | x | 10 | 6 | 5.7 | -0.9
(22) C/C(=N/NC(=O)c1sc(NS(=O)(=O)c2ccccc2)nc1C)c1ccccc1
    2 | i | 4 | x | x | 1.1 | -19 | -30 | -0.6 | -0.8
(23) CC(NC(=O)OC(C)(C)C)C(=O)Oc1ccc2ccc(=O)oc2c1 (centres undefined)
    x | x | -5 | -474 | 0.78 | 1.1 | x | x | x | x
(24) CN1CCN(C(=O)/C=C/c2cccc(Cl)c2)CC1
    8 | i | -6 | 2.5 | 0.7 | -1.3 | 6 | 8 | 1.8 | -0.5
(25) COCCn1c(SCC(=O)N2CC(=O)Nc3ccccc32)nc2ccccc21
    -1 | i | -5 | 2.7 | 0.74 | 0.5 | 11 | 4 | -4.1 | 7.8
(26) S=C(NCc1ccccc1)Nc1ccncc1
    -3 | i | 6 | 1.5 | 0.67 | 0.6 | -1 | -24 | -5.8 | -3.9
(27) Cc1cc2c(ncn2Cc2ccccc2)c(NS(C)(=O)=O)c1C
    -8 | x | x | 2.2 | 0.74 | 0.7 | x | x | x | x
(28) CCOCCCNC(=O)c1cc(Sc2ccc(C)cc2)nc2ccccc12
    -10 | x | -7 | 0.7 | 0.68 | 0.1 | x | x | x | x

# In a second layout: results already given.
no. | Structure | T cruzi inh | FGF22 binding | Beta cell apopt | UCH37 inh | Ecoli growth | A1 inh | rRNA inh HTS | rRNA inh HTS OD600 | rRNA inh HTS RFP | AF4-AF9 inh
26 | S=C(NCc1ccccc1)Nc1ccncc1 | -3 | i | 6 | 1.5 | 0.67 | 0.6 | -1 | -24 | -5.8 | -3.9
27 | Cc1cc2c(ncn2Cc2ccccc2)c(NS(C)(=O)=O)c1C | -8 | x | x | 2.2 | 0.74 | 0.7 | x | x | x | x

# Assay outcomes as filed in PubChem BioAssay.
